VDR inhibitor: blocks the human vitamin D receptor | VDR-SRC2-3 peptide fluorescence polarization, 2 h | Potency, µM, inactives show max response, negative = inhibition, actives largely listed as inhibitors | actives 0.93% (n = 400,000); active means well fitted inhibition curve with a large enough effect; inconclusive means small, poorly fitted or top-dose-only effect, or another doubt; inactive means no such curve, though single readings can be large or run the other way; further: series mostly up to about 120 µM
Target sequence (P11473 whole entry, looked up): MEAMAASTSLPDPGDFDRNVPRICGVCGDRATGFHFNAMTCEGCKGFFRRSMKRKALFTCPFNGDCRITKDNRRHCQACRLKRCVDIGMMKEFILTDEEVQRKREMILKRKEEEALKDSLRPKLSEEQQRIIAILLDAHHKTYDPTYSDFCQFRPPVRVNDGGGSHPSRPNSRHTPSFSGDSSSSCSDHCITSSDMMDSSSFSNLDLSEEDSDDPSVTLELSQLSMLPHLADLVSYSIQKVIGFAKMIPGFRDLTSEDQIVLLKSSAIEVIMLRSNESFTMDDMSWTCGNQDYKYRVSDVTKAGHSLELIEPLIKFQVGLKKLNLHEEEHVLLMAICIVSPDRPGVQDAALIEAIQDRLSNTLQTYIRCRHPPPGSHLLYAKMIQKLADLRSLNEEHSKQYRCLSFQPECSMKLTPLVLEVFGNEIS
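Inhibition of the VDR/SRC2-3 peptide interaction is quantified by fluorescence polarization. Compounds (23 nl, pintool) incubate with the reagents for 2 hours at ambient room temperature.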
Numbers without * were called inactive; & = joins results of further samples; [ ] = another dose, or the depositor's remark. On the % scale 0 is the no-effect control and ±100 the full control effect; potency means the concentration at half of the fitted maximal effect. A portion of the library (hit frequency here may not be typical).

How did CCOC(=O)/C(N=Nc1ccc(C(=O)O)cc1[N+](=O)[O-])=C(\C)O do in these assays?
VDR inhibitor: -9%

Results for CCCCS(=O)(=O)N1CCC(C(=O)NCC2CCCO2)CC1 (stereo unspecified) ?
VDR inhibitor: 0%

How did O=C(OCC(=O)N1CCC(Cc2ccccc2)CC1)c1ccccc1F do in these assays?
VDR inhibitor: -11%

Results for O=C1CCCC(=O)C1=C1SCCS1 ?
VDR inhibitor: -1%

What do the screens show for `O=C(c1cc([N+](=O)[O-])ccc1N1CCOCC1)N1CCN(S(=O)(=O)c2ccc(F)cc2)CC1`?
VDR inhibitor: 7%

How did O=C(C[n+]1cc(Br)cc2ccccc21)c1ccc(Cl)cc1 do in these assays?
VDR inhibitor: inconclusive

Results for CC1Cn2cc(C(=O)Nc3cccc(C(F)(F)F)c3)c(=O)c3c(Cl)ccc(c32)O1 (stereo unspecified) ?
VDR inhibitor: 11%

What do the screens show for `O=C(Nc1ccc(-c2csc(Nc3ccccc3)n2)cc1)c1ccccc1`?
VDR inhibitor: -23%

Results for COc1ccccc1NC(=O)C(C)OC(=O)c1ccc(-n2cnnn2)cc1 (stereo unspecified) ?
VDR inhibitor: -5%

Results for O=C(Cn1c2ccc(F)cc2c2nc3n(c(=O)c21)CCS3)Nc1ccc(Cl)cc1F ?
VDR inhibitor: 3%

How did CCOCCN(C(=O)c1ccccc1Cl)c1cccc(C)c1C do in these assays?
VDR inhibitor: -1%

Results for COc1ccc(-c2cc(C(=O)N3CCN(c4ccccc4)CC3)no2)cc1OC ?
VDR inhibitor: -12%

How did COc1cc(/C=N/NC(=O)c2cc[n+]([O-])cc2)cc(OC)c1OC do in these assays?
VDR inhibitor: -10%

How did Cc1cc(C)cc(N(C(=O)CCC(=O)Nc2cc(C)on2)C(C(=O)NC2CCCC2)c2ccco2)c1 (stereo unspecified) do in these assays?
VDR inhibitor: -18%

Results for O=C1/C(=C/c2ccccc2)SC(=S)N1N1C(=O)C2CC2C1=O (stereo unspecified) ?
VDR inhibitor: -25%

Already shown: two of the compounds above.
How did CCOC(=O)/C(N=Nc1ccc(C(=O)O)cc1[N+](=O)[O-])=C(\C)O do in these assays?
VDR inhibitor: -9%

Results for CCCCS(=O)(=O)N1CCC(C(=O)NCC2CCCO2)CC1 (stereo unspecified) ?
VDR inhibitor: 0%

Arranged by SMILES length (ascending): part of the list above.
How did COc1cc(/C=N/NC(=O)c2cc[n+]([O-])cc2)cc(OC)c1OC do in these assays?
VDR inhibitor: -10%

Results for COc1ccc(-c2cc(C(=O)N3CCN(c4ccccc4)CC3)no2)cc1OC ?
VDR inhibitor: -12%

What do the screens show for `O=C(c1cc([N+](=O)[O-])ccc1N1CCOCC1)N1CCN(S(=O)(=O)c2ccc(F)cc2)CC1`?
VDR inhibitor: 7%

More entries
Results for CCC(=O)NNC(=O)c1c(O)c2ccccc2[nH]c1=O ?
VDR inhibitor: 1%

How did NNc1nc(-c2ccccc2)nc(-c2ccccc2)c1Br do in these assays?
VDR inhibitor: -13%

Results for CCCn1c(N2CCN(C(=O)Nc3ccc(Cl)cc3)CC2)nc2ccccc21 ?
VDR inhibitor: -9%

Results for Cc1cc(C(=O)O)ccc1[C@H](N)C(=O)O ?
VDR inhibitor: -1%&2%

What do the screens show for `CCc1ccc(C2C(C#N)=C(N)N(N(C)C)C3=C2C(=O)CCC3)cc1` (stereo unspecified)?
VDR inhibitor: 20%

How did O=C(CSc1nc2sc3c(c2c(=O)[nH]1)CCC3)NCCO do in these assays?
VDR inhibitor: -10%

What do the screens show for `CCN1C(=O)c2n[nH]c(C(=O)OC)c2C1=O`?
VDR inhibitor: 21%

How did NC(=O)Cn1c(=O)n(CCCCCC(=O)NCc2ccc3c(c2)OCO3)c(=O)c2sccc21 do in these assays?
VDR inhibitor: -22%

How did COC(=O)c1[nH]c2ccccc2c1CN1CCOCC1 do in these assays?
VDR inhibitor: 4%

What do the screens show for `Cc1ccc(Sc2nc([N+](=O)[O-])nn2C)cc1`?
VDR inhibitor: 1%

How did CCOc1cc(/C=C2\C(=O)N(CCC#N)N=C2C)ccc1OCC(N)=O do in these assays?
VDR inhibitor: -5%

Results for COc1ccc2sc(-c3ccccc3OC)c(-c3ccc(OC)c(F)c3)c2c1 ?
VDR inhibitor: -8%

How did CCN(CC)CCOCCOc1ccc(Cl)c2ccccc12 do in these assays?
VDR inhibitor: -2%

How did COc1ccc(OC)c(NC(=O)COC(=O)c2nc(Cl)ccc2Cl)c1 do in these assays?
VDR inhibitor: -5%

How did Cc1cccc(NC(=O)CNC(=O)CN2C(=O)NC3(CCCc4ccccc43)C2=O)c1C (stereo unspecified) do in these assays?
VDR inhibitor: 0%

Results for CC(=O)c1ccc(N2CCN(c3ncnc4c3nc3n4CCCC3)CC2)cc1 ?
VDR inhibitor: 12%

Results for Cc1cc(NC(=O)CCN2CCN(CCO)CC2)ccc1Br ?
VDR inhibitor: 5%

How did O=C(CSc1nnc(-c2ccccc2F)o1)N1CCc2ccccc21 do in these assays?
VDR inhibitor: -19%

What do the screens show for `Cc1nc2c3ccccc3nc(NNC(=O)CCC(=O)O)n2n1`?
VDR inhibitor: -5%

What do the screens show for `O=C(CCCSc1nnc(SCCCC(=O)c2ccc(F)cc2)s1)c1ccc(F)cc1`?
VDR inhibitor: 1%

How did CCCCCOC(=O)Nc1ccc(S(=O)(=O)Nc2cccc([N+](=O)[O-])c2)cc1 do in these assays?
VDR inhibitor: 13%

What do the screens show for `CC1CCCCC12NC(=O)N(CC(=O)Nc1ccc(N3CCCCC3)cc1)C2=O` (stereo unspecified)?
VDR inhibitor: -10%

How did O=C(COC(=O)C1C2CC3OC(=O)C1C3C2)Nc1ccc(Cl)cc1 (stereo unspecified) do in these assays?
VDR inhibitor: 9%

What do the screens show for `CCCc1ccc(OCc2nc(-c3ccc(NC(=O)c4ccco4)cc3)no2)cc1`?
VDR inhibitor: 4%

Results for CC1CCc2c(C(=O)Nc3nccs3)csc2C1 (stereo unspecified) ?
VDR inhibitor: 1%

How did Cc1ccc(N/N=C/c2ccc(N3CCOCC3)cc2)cc1C do in these assays?
VDR inhibitor: -5%

What do the screens show for `Cn1cc([N+](=O)[O-])c(C(=O)NCc2cc3cc(Cl)ccc3[nH]2)n1`?
VDR inhibitor: -6%

Results for CCOc1ccccc1/C=C(\C(=O)O)c1ccc(S(=O)(=O)N2CCCCC2)s1 ?
VDR inhibitor: -2%

Results for CN1C(=O)CC2(C=CC(=O)C=C2OC(=O)c2ccccc2)c2ccccc21 (stereo unspecified) ?
VDR inhibitor: -20%

What do the screens show for `Cc1cc(C(=O)NN)c(C)o1`?
VDR inhibitor: -16%

Results for COc1ccc(C=O)cc1COc1ccc(Cl)cc1[N+](=O)[O-] ?
VDR inhibitor: 2%

Results for Cc1ccc(OC2CCN(C(=O)C3CCC(=O)N(C4CC4)C3)CC2)cc1 (stereo unspecified) ?
VDR inhibitor: -2%

Results for CCOc1ccc(S(=O)(=O)NCCCn2ccnc2)cc1 ?
VDR inhibitor: -7%

Results for NC(=O)Cn1c(=O)n(CCCC(=O)NC2CCN(Cc3ccccc3)CC2)c(=O)c2ccccc21 ?
VDR inhibitor: -5%

Results for Clc1ccccc1-c1ncc2ccccn12 ?
VDR inhibitor: 0%

How did Cc1ccc(CNC(=O)c2ccc3oc(=O)n(Cc4ccccc4)c3c2)cc1 do in these assays?
VDR inhibitor: -1%

How did Cc1ccc(CNC(=O)c2cn(C)c3ccc(S(=O)(=O)N4CCOCC4)cc3c2=O)cc1 do in these assays?
VDR inhibitor: 2%&-16%

What do the screens show for `CCn1c(SCc2ccccc2C)nc(=O)c2c(C(=O)OC)cc(C3CC3)nc21`?
VDR inhibitor: 4%

Results for Cc1ccc(S(=O)(=O)N2CCCCC2)cc1C(=O)Nc1ccc(S(=O)(=O)Nc2ncccn2)cc1 ?
VDR inhibitor: inconclusive

How did O=C(NNC(=O)c1ccc(F)c(S(=O)(=O)N2CCOCC2)c1)c1ccc([N+](=O)[O-])cc1 do in these assays?
VDR inhibitor: -24%

Results for NS(=O)(=O)c1ccc(CCNC(=O)c2ccc(Cn3c(=O)[nH]c4ccccc4c3=O)cc2)cc1 ?
VDR inhibitor: -5%

How did CCN(CC)S(=O)(=O)c1cc(NC(=O)C2CSC3(C)CCC(=O)N23)ccc1C (stereo unspecified) do in these assays?
VDR inhibitor: -6%

What do the screens show for `CC(=O)c1c(C)[nH]c(C(=O)OCc2nnc(-c3ccccc3)o2)c1C`?
VDR inhibitor: -1%

How did O=C(CSc1nnnn1-c1ccc2c(c1)OCCO2)c1cccc2c1OCCO2 do in these assays?
VDR inhibitor: 112%[activator]

What do the screens show for `COC(=O)CSc1nnc(CNC(=O)c2ccco2)n1-c1ccc(F)cc1`?
VDR inhibitor: -5%

Results for Cc1ccccc1-n1nnnc1SC(C)C(=O)Nc1ccc(N2CCN(C)CC2)cc1 (stereo unspecified) ?
VDR inhibitor: -9%

How did CC(C)(C)NC(=O)CSc1ncnc2c1cnn2-c1ccccc1 do in these assays?
VDR inhibitor: -25%

What do the screens show for `CCN(CC)CCCNc1nc2ccccc2[nH]1`?
VDR inhibitor: -1%

How did O=C(NC(N1CCOCC1)C(Cl)(Cl)Cl)c1ccccc1Cl (stereo unspecified) do in these assays?
VDR inhibitor: -19%

Results for O=C(O)c1c2c(nc3ccccc13)/C(=C/c1c(F)cccc1F)CCC2 ?
VDR inhibitor: -17%

Results for COc1ccc(NC(=O)Nc2ccc3c(c2)OCO3)c(C)c1 ?
VDR inhibitor: 16%

Results for Cc1cc(C)cc(C(=O)NCCc2csc(-c3ccc(C(F)(F)F)cc3)n2)c1 ?
VDR inhibitor: 7%

What do the screens show for `CCCCCNC(=O)CCc1ccccc1`?
VDR inhibitor: 2%

How did CN(C)C(CNC(=O)c1ccc(Cl)c(S(=O)(=O)N2CCCCCC2)c1)c1ccccc1 (stereo unspecified) do in these assays?
VDR inhibitor: 19%

How did COc1cc(OC)cc(-c2cc3nc(C)c(CCC(=O)Nc4nc(C)cs4)c(C)n3n2)c1 do in these assays?
VDR inhibitor: -13%

How did Cc1nnc(SCC(=O)Nc2c(Cl)cccc2Cl)n(N)c1=O do in these assays?
VDR inhibitor: -12%

What do the screens show for `CCOC(=O)c1ccc(NC(=O)c2nccnc2C(=O)O)cc1`?
VDR inhibitor: -1%

How did CC(C)Nc1nnc(SC(C)C(=O)Nc2ccc(Cl)cn2)s1 (stereo unspecified) do in these assays?
VDR inhibitor: 1%

How did C=CCOc1ccc(CN(C)C(=O)c2ccc(CNS(=O)(=O)c3ccc(C)c(C)c3)cc2)cc1 do in these assays?
VDR inhibitor: 1%

Results for CC1COc2ccccc2N1S(=O)(=O)c1ccc(Cl)cc1 (stereo unspecified) ?
VDR inhibitor: -15%

Next part; the last two above are carried over.
How did C=CCOc1ccc(CN(C)C(=O)c2ccc(CNS(=O)(=O)c3ccc(C)c(C)c3)cc2)cc1 do in these assays?
VDR inhibitor: 1%

Results for CC1COc2ccccc2N1S(=O)(=O)c1ccc(Cl)cc1 (stereo unspecified) ?
VDR inhibitor: -15%

Results for Cc1ccc(S(=O)(=O)NCc2ccccn2)c(C)c1 ?
VDR inhibitor: -12%

Results for O=C(COc1ccc2ccccc2c1)Nc1nnc(-c2ccco2)s1 ?
VDR inhibitor: 12%

What do the screens show for `Fc1ccccc1-c1nc(NC2CCCC2)c2ccccc2n1`?
VDR inhibitor: 12%

Results for O=C1CCC(=O)N1CNc1ccc(Oc2ccccc2)cc1 ?
VDR inhibitor: -1%

What do the screens show for `CC(=O)c1ccc(OCc2cc([N+](=O)[O-])cc3c2OCOC3)cc1`?
VDR inhibitor: 5%

What do the screens show for `CCC1CCc2nc3sc(C(=O)Nc4cccc(C(F)(F)F)c4)c(N)c3cc2C1` (stereo unspecified)?
VDR inhibitor: 0%

What do the screens show for `CCOC(=O)Nc1ccc(Oc2ccccc2)cc1`?
VDR inhibitor: 2%

Results for COc1ccc(Nc2nc3c(C)cccn3c(=O)c2C=NCc2ccccc2)cc1 ?
VDR inhibitor: -2%

Results for COc1cc(OC)cc(-c2nc3nc(C)c(CCC(=O)NCC(OC)OC)c(C)n3n2)c1 ?
VDR inhibitor: 0%

Results for CCNC(=O)c1c(NC(=O)COc2ccc(F)cc2)sc2c1CCCC2 ?
VDR inhibitor: 1%

Results for Brc1ccc(CSc2ccc(-c3ccco3)nn2)cc1 ?
VDR inhibitor: -20%

Results for O=C(NCCN1CCN(C(=O)c2ccc([N+](=O)[O-])cc2)CC1)C(=O)Nc1ccc(F)cc1 ?
VDR inhibitor: -13%

What do the screens show for `COCCOC(=O)c1[nH]c2c(c1C)C(=O)CC(c1ccccc1)C2` (stereo unspecified)?
VDR inhibitor: -2%

How did CCOc1ccc(NC(=O)C2CCC(CNc3c(N4CCC(C)CC4)c(=O)c3=O)CC2)cc1 (stereo unspecified) do in these assays?
VDR inhibitor: 6%

What do the screens show for `CC(=O)c1c(C)n(-c2ccccc2)c2ccc(OCC(N)=O)cc12`?
VDR inhibitor: 0%

How did CCNC(=S)Nc1ccc2ncoc2c1 do in these assays?
VDR inhibitor: -5%

What do the screens show for `CCOC(=O)CSc1nnc(Cc2ccccc2)n1-c1cccc(Cl)c1`?
VDR inhibitor: -17%

Results for CCN(C(=O)C1CCCN1S(=O)(=O)c1ccc2c(c1)n(C)c(=O)c(=O)n2C)c1ccccc1 (stereo unspecified) ?
VDR inhibitor: 6%

Results for COc1cc2oc(=O)c(CC(=O)NCCc3ccccc3)c(C)c2cc1Cl ?
VDR inhibitor: -1%

Results for Cc1cccc(NC(=O)CN2C(=O)C(c3ccc(F)cc3)=NC23CCCCCC3)c1 ?
VDR inhibitor: -2%

Results for O=C(CC12CC3CC(CC(C3)C1)C2)Nc1cccc2ncccc12 ?
VDR inhibitor: -6%

Results for CCCCc1ncc(CN2CCC(n3nccc3NC(=O)c3ccccc3OC)CC2)[nH]1 ?
VDR inhibitor: inconclusive

What do the screens show for `COc1ccc(CNC(=O)CCS(=O)(=O)c2cc3c4c(c2)CCN4C(=O)CC3)cc1OC`?
VDR inhibitor: 13%

Assay outcomes deposited in PubChem BioAssay by National Center for Advancing Translational Sciences (NCATS).
